Sa growth 42C: inhibitors of Staphylococcus aureus growth at 42 °C; 0.53% of 170,000 active; S. aureus RN4220 growth, OD600, 20 h; hits give low values; relative growth, % (test concentration not listed);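 active = growth at 42 °C up to 50% and 20 or more points under that at 30 °C, or under 10% at both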;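 also: 300 nL library stock went into each well; scaled to the means of positive and negative controls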
HCMV UL50-53 inh: inhibitors of HCMV UL50-UL53 nuclear egress complex interaction | 0.15% of 190,000 active | HTRF UL50-UL53 interaction, normalized percent inhibition | inhibition, % (concentration not given with the values);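 active = both replicates at 50% or more, plus weaker picks with an unusually low signal ratio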;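 also: stock transfer was 100 nL into about 20 µL; 0% = negative control wells and 100% = wells with untagged competitor protein; inactives centre near -12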
GIV Gai3 FP: blocks GIV peptide binding to rat Galpha-i3; P08753; Galpha-i3/FITC-GIV peptide fluorescence polarization, 90 min; hits give low values; scaled: aluminum fluoride 0%, vehicle 100%; percent of control (FP), % (concentration not given with the values); 0.42% of 210,000 active; AID 1224905;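 active = replicate mean at 85% of control or lower, very high polarization wells dropped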;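 also: wells of about 15 µL received 100 nL stock; the first replicate is given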
Target sequence (P08753 whole entry, looked up): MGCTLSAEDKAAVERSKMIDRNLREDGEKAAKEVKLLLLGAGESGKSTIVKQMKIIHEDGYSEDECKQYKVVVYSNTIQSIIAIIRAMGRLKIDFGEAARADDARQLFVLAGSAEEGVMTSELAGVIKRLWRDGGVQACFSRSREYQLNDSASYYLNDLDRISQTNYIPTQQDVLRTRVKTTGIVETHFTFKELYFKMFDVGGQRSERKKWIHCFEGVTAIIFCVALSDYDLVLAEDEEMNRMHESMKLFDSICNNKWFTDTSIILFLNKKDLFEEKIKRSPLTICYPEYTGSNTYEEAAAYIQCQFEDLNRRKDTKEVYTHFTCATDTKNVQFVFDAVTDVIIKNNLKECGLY
Sa growth 42C second temp: further read-out of Sa growth 42C, marked with its call; relative growth, %; measured here: growth at 30 °C;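 optical density after 20 h as mean of two plates; 100% = untreated growth and lower means inhibition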
Starred values were filed as active, the others as inactive; . = not tested or not shown.

SMILES	Sa growth 42C	Sa growth 42C second temp	HCMV UL50-53 inh	GIV Gai3 FP
CC(=O)c1ccc(NC(=O)CCc2c(C)nc3cc(-c4ccc(Cl)cc4)nn3c2C)cc1	108	81	-12	102
Cc1ccc(Cl)cc1NC(=O)CC(C(=O)O)N1CCN(C)CC1 (configuration not stated)	103	99	-1	104
COc1cc(SC)ccc1C(=O)Oc1ccccc1C	110	94	-4	.
CC1CN(C(=O)C(C)N2CCc3ccccc3C2)CC(C)O1 (configuration not stated)	107	99	11	.
CC(C)(C)c1ccc2c(c1)N(CC(=O)Nc1cccc3nsnc13)C(=O)CO2	.	.	-15	103
CC1CCCN(CN2C(=O)C3(OCCO3)c3ccccc32)C1 (configuration not stated)	.	.	-26	98
CSc1nc2n(n1)C(C)C1=C(CCCC1=O)N2 (configuration not stated)	99	94	-23	110
CCc1ccc(OCCSc2nc3ccccc3n2CC(=O)O)cc1	.	.	-8	110
COc1ccc(C2SCC(=O)N2c2ccc(Br)cc2)cc1 (configuration not stated)	112	88	-16	.
CCC(C)Nc1c(-c2ccc(C)cc2)c(=O)c1=O (configuration not stated)	.	.	-46	106
COc1cc(NC(=O)CNC(C)C)cc(OC)c1	82	84	-1	.
COc1cc(CNCCc2c[nH]c3ccccc23)ccc1OCc1ccc2c(c1)n(C)c(=O)n2C	.	.	0	106
COc1ccc(C(=O)Nc2nc(-c3ccc(Br)cc3)ns2)cc1	106	92	-5	98
Cc1cccc(NC(=O)CSc2nnc(C)c(=O)[nH]2)c1	109	98	0	101
c1cnc(N2CCN(c3ncc4c(n3)CCNC4)CC2)nc1	92	98	10	108
Cc1cccc(N2CCN(S(=O)(=O)c3ccc4[nH]c5c(c4c3)CCCCC5)CC2)c1C	109	86	.	104
Cc1ccc(CCNC(=O)Cn2nc(-c3ccc(C)cc3)ccc2=O)cc1	84	97	.	101
Cc1ccc(S(=O)(=O)CCSc2ncccn2)cc1	90	82	-24	105
Cc1ccccc1-c1nnc(SCC(=O)N(C)C2CCCCC2)o1	90	80	-26	98
CC(NC(=O)c1c(O)c2ccccc2[nH]c1=O)c1ccccc1 (configuration not stated)	91	95	-15	96
CCC1Oc2cc(S(=O)(=O)N3CCCC(C(=O)NC4CCCC4)C3)c(C)cc2NC1=O (configuration not stated)	.	.	-6	108
CCN1CCN(c2csc3ccc(Br)cc3c2=O)CC1	100	83	.	108
O=C(NCC(c1ccco1)N1CCCC1)c1ccc(Br)o1 (configuration not stated)	.	.	-20	106
CCCCOC(=O)Nc1ccc(N2CCOCC2)cc1	98	93	1	103
CCCC1Oc2ccc(Cl)cc2NC1=O (configuration not stated)	.	.	-21	111
CCCCCCNCc1ccc2c(c1)n(C)c(=O)n2C	.	.	-20	101
Cc1ccc(CNC(=O)Cn2ccn(-c3cccc(Cl)c3)c(=O)c2=O)cc1	126	95	-23	103
Cc1ccc(-c2csc3ncnc(NC4CCCCC4)c23)cc1	.	.	-11	121
COc1cccc(N2CCN(C(=O)c3cccc(NC(=O)c4nsc5ccccc45)c3)CC2)c1	110	88	.	106
CCOC(=O)c1c(C)[nH]c(C)c1C#N	96	94	3	104

Four compounds out of the list above, sorted by their value in Sa growth 42C second temp, low to high.
compound	Sa growth 42C	Sa growth 42C second temp	GIV Gai3 FP
CCN1CCN(c2csc3ccc(Br)cc3c2=O)CC1	100	83	108
CCCCOC(=O)Nc1ccc(N2CCOCC2)cc1	98	93	103
CC(NC(=O)c1c(O)c2ccccc2[nH]c1=O)c1ccccc1 (configuration not stated)	91	95	96
Cc1ccc(CCNC(=O)Cn2nc(-c3ccc(C)cc3)ccc2=O)cc1	84	97	101

Other records:
SMILES	Sa growth 42C	Sa growth 42C second temp	HCMV UL50-53 inh	GIV Gai3 FP
COc1ccc(NC(=O)Cn2c(=O)n(CC3CCCO3)c(=O)c3ccccc32)c(OC)c1 (configuration not stated)	91	87	-27	102
O=S1(=O)N=CNc2ccc(S(=O)(=O)Nc3ccc(OCc4ccccc4)cc3)cc21	.	.	-30	98
CCC(=O)c1cn(CC(=O)NCc2ccco2)c2ccccc12	92	81	-4	102
C=CCNC(=O)COc1ccc2c(c1C)OC(C)(C)CC2=O	92	93	5	106
O=C(NCc1cccs1)c1ccc(CSc2nc3ccncc3[nH]2)cc1	103	77	2	106
CCn1cc(C(=O)N2CCN(c3ccc(F)cc3)CC2)c2cc(OC)c(OC)cc2c1=O	74	80	-6	98
Cc1nn(-c2ccc(F)cc2)c(-n2cccc2)c1C(=O)N1CCCCC1C (configuration not stated)	121	93	.	106
CC1(c2ccccc2)NC(=O)N(CN2CCN(S(=O)(=O)/C=C/c3ccccc3)CC2)C1=O (configuration not stated)	101	97	0	.
CCN1CCN(C(=O)C(C)Sc2nnc(-c3cccc(Cl)c3)n2CC)CC1 (configuration not stated)	85	88	-9	.
CCS(=O)(=O)N1CCN(c2ccccn2)CC1	103	94	-19	102
CNC(=S)NCc1ccco1	106	89	-5	100
Cc1nc2ncccc2c(=O)n1-c1ccc(F)c(NC(=O)c2cc(Br)ccc2Cl)c1	.	.	16	105
CCOc1ccc(NCc2cccn2-c2nnc(N3CCC(C(=O)NCCOC)CC3)s2)cc1	98	92	-8	106
O=S1(=O)c2ccccc2N(Cc2ccc(Cl)cc2)c2ccccc21	107	97	.	103
COc1ccc(C2CC(=O)C3=C(C2)Nc2nnnn2C3c2ccc(C)cc2)cc1 (configuration not stated)	.	.	-34	103

A different layout for 4 compounds above.
> C=CCNC(=O)COc1ccc2c(c1C)OC(C)(C)CC2=O
  Sa growth 42C: 92
  Sa growth 42C second temp: 93
  HCMV UL50-53 inh: 5
  GIV Gai3 FP: 106
> CCOc1ccc(NCc2cccn2-c2nnc(N3CCC(C(=O)NCCOC)CC3)s2)cc1
  Sa growth 42C: 98
  Sa growth 42C second temp: 92
  HCMV UL50-53 inh: -8
  GIV Gai3 FP: 106
> CC1(c2ccccc2)NC(=O)N(CN2CCN(S(=O)(=O)/C=C/c3ccccc3)CC2)C1=O (configuration not stated)
  Sa growth 42C: 101
  Sa growth 42C second temp: 97
  HCMV UL50-53 inh: 0
  GIV Gai3 FP: .
> CCS(=O)(=O)N1CCN(c2ccccn2)CC1
  Sa growth 42C: 103
  Sa growth 42C second temp: 94
  HCMV UL50-53 inh: -19
  GIV Gai3 FP: 102

Next entries:
SMILES	Sa growth 42C	Sa growth 42C second temp	HCMV UL50-53 inh	GIV Gai3 FP
c1cc2c(cc1-c1cnc3n1CCC3)OCCO2	113	78	-3	.
O=C(C1CC(=O)N(c2ccccc2)C1)N1CCC(c2nc(-c3ccccc3)no2)CC1 (configuration not stated)	.	.	-5	100
CN1CCC(N(C)C(=O)c2cc3cc(Br)cc(Br)c3o2)CC1	85	100	-8	.
CN(c1ncnc2sc(-c3ccccc3)cc12)C1CCS(=O)(=O)C1 (configuration not stated)	86	91	-19	.
O=C(NCc1nnc(SCc2ccc(Br)cc2)n1-c1ccc(F)cc1)c1ccco1	97	78	-4	95
CCOc1ccc(-c2cc(C(F)(F)F)c(C#N)c(SCC)n2)cc1	96	98	.	94
O=C(O)c1ccc(CN2C(=O)c3ccc(C(=O)O)cc3C2=O)cc1	100	84	.	96
Cc1ccc(C(=O)OCC(=O)N2CCc3ccccc32)c(C)c1	89	95	0	.
O=C(NCc1ccc2c(c1)OCO2)c1cccc2c1OCCCO2	98	69	0	101
Cc1c(C(=O)N2CCN(c3ccc(F)cc3)CC2)sc2nc3n(c(=O)c12)CCC3	119	102	-7	101
Cc1ccc(CC(C#N)Sc2nc3ccccc3o2)cc1 (configuration not stated)	95	90	4	.
Cc1c(C(=O)N2CCN(c3ccccc3)CC2)sc2nc3n(c(=O)c12)CCC3	85	103	5	100
COc1cccc(N2CCN(C(=O)C3C4C=CC5(CN(Cc6ccccc6Cl)C(=O)C35)O4)CC2)c1 (configuration not stated)	92	81	-29	102
O=C(COc1cccc2ccccc12)N1CCc2ccccc2C1	97	83	-20	.
CCCN1CCC(NC(=O)Nc2cccc3ccccc23)CC1	98	101	-10	102
CC(NC(=O)c1ccc(F)cc1)C(c1ccccc1)N1CCN(C)CC1 (configuration not stated)	82	93	-9	.
CCn1c(SCCN2CCCC2)nnc1C1CCCN(C(=O)c2ccc3c(c2)OCO3)C1 (configuration not stated)	93	74	-3	102
CCc1ccccc1NC(=O)NC1CCCC1	107	97	-12	97
Cc1ccc(CNC(=O)CC2CCN(C(=O)c3[nH]c(C)c(C(=O)OC(C)C)c3C)CC2)cc1	.	.	-2	107
CN(C)CCCNc1cn[nH]c(=O)c1Cl	93	81	-9	97
Cn1c(SCC(=O)c2ccccc2)nnc1C1COc2ccccc2O1 (configuration not stated)	103	98	11	102
Cc1c(C)n(-c2cc(F)cc(F)c2)c2ncnc(Nc3ccc(F)c(F)c3)c12	.	.	-16	107
Brc1ccc(-c2csc(-c3cnccn3)n2)cc1	97	80	-4	103
O=C(CCN1CCOCC1)Nc1cc(C(F)(F)F)ccc1Cl	105	82	-1	102
CN(C)CCC(O)(CCc1ccccc1)c1ccccc1 (configuration not stated)	107	92	-19	104
O=C1NC(=S)N(c2ccc(Br)cc2)C(=O)/C1=C/c1ccsc1	69	91	.	94
Cc1ccc2c(=O)cc(C(=O)Nc3nc4ccc(Cl)cc4s3)oc2c1	104	71	-10	107
Cc1cc(C)c2c(=O)cc(C(=O)Nc3sc4c(c3C(=O)NCc3ccccc3)CCCC4)oc2c1	97	88	-21	104
CCOC(=O)C1CCCN(Cc2cn3c(-c4ccc(Br)cc4)nnc3s2)C1 (configuration not stated)	137	88	.	103
c1ccc(-n2nnnc2SCC2CCCCO2)cc1 (configuration not stated)	97	106	17	.
Cc1nc(C)c(-c2nc(-c3cccc(NC(=O)NC(C)C)c3)no2)s1	.	.	-18	106
COc1ccc(NC(=O)CN2CCN(C3CCCCC3)C(=O)C2=O)cc1	99	101	.	110
O=C(Oc1ccccc1N(C(=O)c1ccccc1)S(=O)(=O)c1ccccc1)c1ccccc1	102	96	.	112
Cn1c(=O)[nH]c(=O)c2c1nc(N1CCCC1)n2CCCc1ccccc1	90	86	-3	96
Cc1cccc(-n2ccnc2SCC(=O)Nc2cccc3ccccc23)c1	110	79	.	100
COc1nccc(C(F)(F)F)c1C(=O)NC(=O)Nc1c(C)cccc1C	94	90	-34	103
O=C(CCCC(=O)N1CCCc2ccccc21)N1CCCc2ccccc21	106	93	1	.
COc1cccc(N2CCN(Cc3nnc(-c4ccc5c(c4)OCO5)o3)CC2)c1	99	94	-15	106
CCN1CCc2nc(NC(=O)c3ccccc3)sc2C1	108	93	4	.
CC(=O)Nc1ccc(OC(=O)c2cccc(Cl)c2)cc1	96	86	-1	111

7 compounds already listed, sorted by molar mass, highest first:
SMILES	Sa growth 42C	Sa growth 42C second temp	HCMV UL50-53 inh	GIV Gai3 FP
COc1cccc(N2CCN(C(=O)c3cccc(NC(=O)c4nsc5ccccc45)c3)CC2)c1	110	88	.	106
COc1cc(CNCCc2c[nH]c3ccccc23)ccc1OCc1ccc2c(c1)n(C)c(=O)n2C	.	.	0	106
CCn1cc(C(=O)N2CCN(c3ccc(F)cc3)CC2)c2cc(OC)c(OC)cc2c1=O	74	80	-6	98
Cc1cccc(N2CCN(S(=O)(=O)c3ccc4[nH]c5c(c4c3)CCCCC5)CC2)c1C	109	86	.	104
COc1ccc(NC(=O)CN2CCN(C3CCCCC3)C(=O)C2=O)cc1	99	101	.	110
Cc1nc(C)c(-c2nc(-c3cccc(NC(=O)NC(C)C)c3)no2)s1	.	.	-18	106
O=C(NCC(c1ccco1)N1CCCC1)c1ccc(Br)o1 (configuration not stated)	.	.	-20	106
